NPR1 antag: blocks ANP-stimulated signaling of human Npr1 receptor; HEK293 hNpr1 GloSensor cGMP, ANP-stimulated luminescence; actives 1.6% (n = 76,000); AID 1347048; P16066; Potency, µM (highest dose often 46.3 µM), inactives show at the top dose activity change, negative = inhibition, most hits filed as inhibitors; active = well fitted inhibition curve with a large enough effect; inconclusive = small, poorly fitted or top-dose-only effect; inactive = no such curve, though single readings can be large or run the other way;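 note: nearly all actives have a fitted effect of over 60% in size; nearly all hits also lower the signal before the agonist is added; a reference antagonist and vehicle were the controls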
Target sequence (P16066 whole entry, looked up): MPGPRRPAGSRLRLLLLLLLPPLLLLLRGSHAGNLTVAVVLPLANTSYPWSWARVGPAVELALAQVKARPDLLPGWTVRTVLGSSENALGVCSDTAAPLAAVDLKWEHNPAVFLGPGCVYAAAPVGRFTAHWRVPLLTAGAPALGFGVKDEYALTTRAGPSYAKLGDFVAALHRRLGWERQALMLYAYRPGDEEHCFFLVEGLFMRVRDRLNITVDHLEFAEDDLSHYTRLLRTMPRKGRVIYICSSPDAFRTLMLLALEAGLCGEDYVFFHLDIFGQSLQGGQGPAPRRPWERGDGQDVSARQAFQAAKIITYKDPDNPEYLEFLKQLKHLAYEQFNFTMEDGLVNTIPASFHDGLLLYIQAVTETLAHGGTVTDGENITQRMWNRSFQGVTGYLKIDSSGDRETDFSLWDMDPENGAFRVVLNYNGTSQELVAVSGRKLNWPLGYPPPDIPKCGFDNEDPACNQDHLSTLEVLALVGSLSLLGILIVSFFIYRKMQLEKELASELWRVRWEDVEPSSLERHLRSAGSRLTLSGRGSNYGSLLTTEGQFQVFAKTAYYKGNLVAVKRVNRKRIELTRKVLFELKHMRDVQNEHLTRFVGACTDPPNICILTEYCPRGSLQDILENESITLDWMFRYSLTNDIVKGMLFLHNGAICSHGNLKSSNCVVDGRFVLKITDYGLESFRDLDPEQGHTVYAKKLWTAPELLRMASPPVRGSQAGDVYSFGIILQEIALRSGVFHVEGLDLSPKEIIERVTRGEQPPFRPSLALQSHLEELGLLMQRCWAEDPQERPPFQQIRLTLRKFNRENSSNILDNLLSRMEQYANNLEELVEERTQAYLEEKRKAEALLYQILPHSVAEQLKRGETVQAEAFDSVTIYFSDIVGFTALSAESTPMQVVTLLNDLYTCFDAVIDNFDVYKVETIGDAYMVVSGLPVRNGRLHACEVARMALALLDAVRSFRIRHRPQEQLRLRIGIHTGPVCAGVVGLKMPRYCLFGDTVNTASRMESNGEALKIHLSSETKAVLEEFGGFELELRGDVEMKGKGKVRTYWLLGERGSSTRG
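Compound pre-incubated 30 min at room temperature on GloSensor-loaded HEK293 cells stably carrying hNpr1 and the pGS-40F cGMP biosensor. Stimulation uses hNppA at 0.1 nM final; luminescence is taken at baseline and 20 min post-agonist.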
The depositor's hits bear a star; ? = inconclusive; [ ] = another dose, or the depositor's remark. % is set by controls: 0 for no effect and ±100 for the full control effect; potency is the fitted concentration of half-maximal effect. A portion of the library; rates above refer to the full screens.

NPR1 antag | SMILES
0.0% | Cc1ccc(-c2cc(C(=O)N3CCC(c4cc(CC(=O)O)[nH]n4)CC3)n[nH]2)o1
-2.5% | COc1ccc(C(=O)N2CCC(Cc3nncn3C)C2)cc1 (stereo not drawn)
-0.9% | O=C(c1cc(-c2ccccc2)nc2ccccc12)N1CCc2c(nc[nH]c2=O)C1
-3.3% | CC[C@@]1(C(=O)O)C[C@H](C(=O)NC(CO)CO)[C@H](c2ccc(F)cc2)N1C
1.6% | O=C(c1cc(F)ccc1Cl)N1C[C@@H](CO)[C@H](c2ccccn2)C1
-16.1% | CN1CC(=O)N(c2ccc(Cl)cc2)Cc2c(NCc3cccs3)ncnc21
-3.7% | N#Cc1cccc(C(=O)N2CCC(n3cc(-c4nc(C5CC5)no4)nn3)C2)c1 (stereo not drawn)
-14.2%[70.6 µM] | CC1(COc2ccccc2)COc2ccc(C(=O)NC3CCC(O)CC3)cc2N1 (stereo not drawn)
1.2% | CCNC(=O)N1CCC(c2noc(-c3cnccn3)n2)C1 (stereo not drawn)
4.2% | COC(=O)[C@@H]1Cc2c([nH]c3ccccc23)[C@H]2C[C@@H](N3CCOCC3)C[C@@H](c3ccc(C(F)(F)F)cc3)N21
2.4%[70.6 µM] | Cc1cccc(OCC2(CNC(=O)c3cc(C)on3)C[C@@H](O)[C@@H](O)C2)n1 (stereo partly drawn)
-0.9% | Cc1ccc(S(=O)(=O)N2CCC(Oc3ncccc3C(=O)N3CCOCC3)C2)cc1C (stereo not drawn)
3.2% | Cc1ncc2c(c1CNC(=O)c1ccccc1C1CCNC1)CCNC2 (stereo not drawn)
-5.4% | O=C(CCC1CCN(Cc2cn(-c3ccccc3)nn2)CC1)N1CCOCC1
1.7%[70.6 µM] | COc1ccc(C(=O)N[C@H]2CC[C@]3(C)CC[C@@H]4[C@H](OC(=O)[C@H]4C)[C@H]3[C@@H]2C)cc1
6.3% | Cn1nccc1C(=O)N1CCC2(CC1)NCCc1c2[nH]c2ccccc12
-0.6% | Cc1ccc(C(=O)N2CC[C@@H]3COCCN(C)[C@@H]3C2)s1
? | COc1ccc(-c2noc([C@@H]3C[C@H](NCc4ccc(S(C)(=O)=O)cc4)CN3C)n2)cc1
-14.4% | O=C(c1ccc(C(F)(F)F)cc1)N1CCC(c2nn(-c3ccc(F)cc3)c(=O)[nH]2)CC1
3.6% | CCc1cccc(C)c1NC(=O)Cn1cccc1-c1nc(-c2ccc3c(c2)OCO3)no1
-0.5%[70.6 µM] | CC(C)CN1CC[C@H]2COC(=O)N2c2cc(F)ccc2C1
5.1% | OCc1ccc(CN(Cc2ccc(CO)o2)C2(Cc3cc(-c4ccccc4)on3)COC2)o1
-6.3% | CC(C)C[C@H](NC(=O)Cn1nc2c(cc1=O)CCCCC2)C(=O)O
? | CC(C(=O)N1CCCC1)N1C(=O)COc2ccc(C(=O)COc3ccc(Cl)cc3)cc21 (stereo not drawn)
-0.6% | CN1C(=O)CC[C@]2(C(=O)N3CCCCC3)CCCC[C@@H]12
1.9%[70.6 µM] | CN1CCC(NC[C@H]2Cn3c(-c4ccc(F)cc4)cnc3CO2)CC1
-21.9%[70.6 µM] | O=C(CN1Cc2nc(OCc3ccc(F)cc3)ccc2OCC1=O)N1CCCC1
4.6%[70.6 µM] | Cc1noc(C)c1Cn1cc2c3c(cccc31)[C@H](CC(C)C)N[C@H](C(=O)NCC1CC1)C2
21.3%[70.6 µM] | O=C1Nc2ccccc2CC12CCN(CC1CCCCC1)CC2
? | COc1ccc(-c2ccnc(N[C@H]3CO[C@H]4[C@@H]3OC[C@@H]4NS(=O)(=O)c3ccc4ccccc4c3)n2)cc1
-21.2% | COCC1CN(C2CCC2)CC12CCN(C(=O)c1ccc(F)c(F)c1)CC2 (stereo not drawn)
-13.7% | COCC(=O)N(C1CCOCC1)C1CCN(C(=O)c2cccc(OC)c2)CC1

Shown with tabs: part of the list above
structure	NPR1 antag
CC(C)C[C@H](NC(=O)Cn1nc2c(cc1=O)CCCCC2)C(=O)O	-6.3%
COc1ccc(-c2noc([C@@H]3C[C@H](NCc4ccc(S(C)(=O)=O)cc4)CN3C)n2)cc1	?
Cc1ccc(-c2cc(C(=O)N3CCC(c4cc(CC(=O)O)[nH]n4)CC3)n[nH]2)o1	0.0%
Cc1cccc(OCC2(CNC(=O)c3cc(C)on3)C[C@@H](O)[C@@H](O)C2)n1 (stereo partly drawn)	2.4%[70.6 µM]
O=C(c1cc(F)ccc1Cl)N1C[C@@H](CO)[C@H](c2ccccn2)C1	1.6%

Later entries.
NPR1 antag | SMILES
0.1% | COc1cccc(CCC(=O)NC2CCN(c3cc(C(F)(F)F)nc(C)n3)CC2)c1
4.2% | COc1cccc(CC(=O)NCc2nnc3c(-c4nc(C)no4)cccn23)c1
-1.6% | COc1ccccc1CC(=O)N1CC[C@@H]2NC(=O)[C@H]3C[C@H](NC(=O)C4CCC4)CN3C(=O)[C@H]21
-2.6%[70.6 µM] | COCC(=O)N[C@H]1C[C@@H](c2nc(-c3ccc(F)cc3)no2)N(C)C1
-2.1% | COc1cccc(OC)c1-c1nc(C)c(C)cc1C(N)=O
4.5% | COc1cccc(CC(=O)NCc2ccc(Cl)s2)c1
-5.6% | O=C(c1ccccc1)N1CCOc2ccc(CN3CCc4ccccc4C3)cc2C1
-2.5% | COc1ccc2[nH]c(=O)c(CCC(=O)NCC(N)=O)cc2c1
? | Cc1cccc(C)c1-c1nc(C(=O)N2CCN(c3ncccn3)CC2)n2ccccc12
-2.1% | CCOc1ccccc1CN1CCN(c2cc(C)nc(N)n2)CC1CCO (stereo not drawn)
? | O=C(c1ccc(-c2cccc(O)c2)nc1)N1CCC(CCc2ccccc2)CC1
2.3% | O=C(C1CC=CC1)N1CC(F)(F)C[C@H]1c1nc(-c2ncccn2)no1
0.7% | Cc1ccccc1CCC1CCCN(S(=O)(=O)c2cccnc2)C1 (stereo not drawn)
0.9% | O=C(C1CC=CC1)N1CCC(N2C(=O)C(OCC3CC3)C23CCCCC3)CC1 (stereo not drawn)
3.1% | CCOc1ccccc1NC(=O)N1CCC(Oc2ncccc2C(=O)N2CCCCC2)C1 (stereo not drawn)
1.8% | CCC(=O)N1CCN(c2nc3c(s2)CC(C(=O)Nc2ccc4c(c2)OCO4)CC3)CC1 (stereo not drawn)
-0.1% | COc1ccc(N2Cc3c(ncnc3N3CCC(N4CCCCC4)CC3)N(C)CC2=O)cc1
0.0% | COCCOC1CCOC2(CCN(C(=O)Cc3cccc(C)c3)CC2)C1 (stereo not drawn)
0.2% | CCc1nc(-c2c3n(c(=O)n(Cc4cccc(C)c4)c2=O)CCCC3)no1
-4.5% | COCCN1C(=O)[C@H]2CN(Cc3ccc(C)o3)C[C@H]2C1=O
2.6% | COc1ccc(N2CC(c3noc(-c4cccc(F)c4)n3)CC2=O)cc1OC (stereo not drawn)
3.7% | CCNC(=O)[C@@H]1C[C@H](NC(=O)CCOC)CN1Cc1ccc(F)cc1C
? | O=C(NCc1ccc(OC(F)(F)F)cc1)N1CCC2(CC1)CN(c1ccccc1)C2=O
-2.3% | CC(=O)Nc1ccc(CN2C(=O)OC3(CCN(Cc4ccc(C(C)C)cc4)CC3)C2(C)c2ccccc2)cc1 (stereo not drawn)

Part of the list above, with each value named.
COCCOC1CCOC2(CCN(C(=O)Cc3cccc(C)c3)CC2)C1 (stereo not drawn)
  NPR1 antag: 0.0%

COc1ccc(N2Cc3c(ncnc3N3CCC(N4CCCCC4)CC3)N(C)CC2=O)cc1
  NPR1 antag: -0.1%

CCNC(=O)[C@@H]1C[C@H](NC(=O)CCOC)CN1Cc1ccc(F)cc1C
  NPR1 antag: 3.7%

CC(=O)Nc1ccc(CN2C(=O)OC3(CCN(Cc4ccc(C(C)C)cc4)CC3)C2(C)c2ccccc2)cc1 (stereo not drawn)
  NPR1 antag: -2.3%

(list continues)
NPR1 antag | SMILES
9.3% | O=C(c1cc(F)cc(F)c1)N1CCC(c2n[nH]c(=O)n2-c2ccccc2)CC1
2.8% | O=C([C@@H]1C[C@H](Oc2cccnc2)CN1C(=O)c1cnccn1)N1CCCC1
3.3% | Cc1cccc(NC(=O)N2CC(C(=O)N(C)C)C3(CCOCC3)C2)c1C (stereo not drawn)
12.3% | Cc1ccc(CN2C[C@@H](CO)[C@H](c3nc(C)no3)C2)cc1
8.3%[70.6 µM] | CCN(CC)Cc1nc(C2(O)CCN(C3CCN(C(C)=O)CC3)CC2)cs1
-2.8%[70.6 µM] | CC(=O)Nc1nc2c(s1)C[C@@H]1[C@](C)(CO)[C@H](O)CC[C@@]1(C)[C@@H]2CC(=O)NC1CC1
-11.0%[70.6 µM] | O=C1c2cnc(-c3ccc(F)cc3)nc2OCCN1Cc1ccc(F)cc1F
3.9% | COc1ccc(CC(=O)N2C[C@@H]3C[C@H](C2)c2c(-c4ccc(NC(C)=O)cc4)ccc(=O)n2C3)cc1
-22.9% | COc1ccc(CNC(=O)[C@@H]2Cc3cn(Cc4ccncc4)c4cccc(c34)[C@H](CC(C)C)N2)cc1
-2.7% | CC[C@@H]1[C@H](NC(=O)C2(c3ccc(S(C)(=O)=O)cc3)CCC2)[C@@H]2CCO[C@H]12
0.9% | COc1ccc(-c2noc(-c3nnn4c3COC(c3ccc(C)cc3C)C4)n2)cc1F (stereo not drawn)
7.8% | Cc1cn2nc(C(=O)Nc3ccc(Cl)cc3)cc2c(N(C)Cc2ccccc2)n1
? | COc1ccc(NC(=O)CCC2CCCN(S(=O)(=O)c3ccccc3)C2)cc1F (stereo not drawn)
-25.8% | CCC1(CC)CCN(C(=O)c2coc(COc3ccc4sc(C)nc4c3)n2)C1
-14.2% | COc1ccc(Cl)cc1-c1ccc2c(c1)C(=O)N1CCN(C(=O)[C@@H](O)c3ccccc3)C[C@H]1C(=O)N2
6.6% | CCN(CC)Cc1cnc2c(C(=O)N3CCCC(C(N)=O)C3)cnn2c1 (stereo not drawn)
-21.9%[70.6 µM] | CCOC(=O)C[C@@H]1C[C@@H](C(C)C)[C@H](CNC(=O)c2cccnc2)C=C1C
-8.0% | Cc1ccc(S(=O)(=O)N2CCC(Oc3ncccc3C(=O)N(C)C)C2)cc1C (stereo not drawn)
1.0%[70.6 µM] | COc1ccccc1CN1CCOCC2(C1)CN([S+](=O)([O-])c1ccccc1)C2
3.6% | Cc1cnccc1CNC(=O)c1cc(COc2ccc3c(c2)OCO3)[nH]n1
-23.2%[70.6 µM] | Cc1ccc(NC(=O)N2Cc3[nH]cnc3C[C@H]2c2nc(-c3ccc(C)cc3)no2)cc1
0.4% | CN(Cc1ccc2nonc2c1)C(=O)C1CCC(=O)N(Cc2ccc(Cl)cc2)C1 (stereo not drawn)
1.9%[70.6 µM] | CN(Cc1cccn1C)C1CCCc2ccccc21 (stereo not drawn)
0.1% | Cn1cnnc1CC1CCNC1 (stereo not drawn)
-8.2% | Cc1ccc(NC(=O)Cn2ccn3nc(-c4ccccc4)c(CO)c3c2=O)cc1Cl
1.5% | O=C(N1c2ccccc2CC1c1nnc(C2CCOCC2)o1)C1(c2ccccc2)CC1 (stereo not drawn)
-1.8% | CCN(CC)C(=O)[C@@H]1C[C@@H](NC(=O)c2ccn(CC)c(=O)c2)CN1C(C)=O
2.3% | CCNC(=O)Nc1ccc(OCC(=O)NC2CCCC2)nc1
9.9% | CN(CC1Cc2ccccc2CN1C)C(=O)c1cnc2nc[nH]n2c1=O (stereo not drawn)
-3.7% | CCc1nccn1CCC(=O)N1CC[C@@](O)(C2CCOCC2)[C@H](C)C1
-13.1%[70.6 µM] | Cc1cccc(-c2noc([C@@H]3Cc4nc[nH]c4CN3C(=O)Nc3ccccc3)n2)c1
-17.0% | O=C(NCCn1cccc1-c1nc(-c2ccc3c(c2)OCO3)no1)c1ccc(Cl)s1
? | COc1nccc(N2CCC(CC(=O)N3CCCC3)CC2)n1
-2.4% | CNC(=O)C1CCN(C(=O)c2ccc(-c3ncc4cnc(-c5ccccc5)cn34)cc2)CC1
10µM* | O=C(c1cccc2[nH]ccc12)N1CCCN(c2cc(-c3ccc(Cl)cc3)[nH]n2)CC1
3.5% | c1ccc(CN2CCc3[nH]cnc3C2c2ccc(-c3ccccn3)cc2)nc1 (stereo not drawn)
-19.6%[70.6 µM] | Clc1ccc(-c2nnc([C@H]3CCN(C4CCCCC4)C3)o2)cc1
0.7% | COc1ccc(C(=O)N2CC(Oc3ccccc3-c3nc(-c4cnccn4)no3)C2)cn1
1.2% | COC1CN(c2cccc(F)c2)C12CCN(C(=O)CCCc1ccccc1)CC2 (stereo not drawn)
0.0% | Cc1ccc(-n2c(C3CCN(C(=O)c4cccc(C)c4)CC3)n[nH]c2=O)cc1
-0.3% | COCC1CN(C)CC12CCN(C(=O)c1cccc(C)c1)CC2 (stereo not drawn)
-29.2% | CCn1nccc1C(=O)N1CCC2(CC1)CC(N(Cc1ccccc1)C1CC1)CCO2 (stereo not drawn)
6.0% | COc1ccc(C(=O)N[C@@H]2CCC[C@@H]2C(=O)NCc2c(C)n[nH]c2C)cc1
2.3%[70.6 µM] | COC(=O)c1ccc2c(c1)nc1n2[C@@H](CNC(=O)C2CC2)COC1
5.1% | CCCNC(=O)N1CCCCCC1CN1CCCC1 (stereo not drawn)
6.2% | CCC[C@@H]1CN(C(=O)c2ccc(OC)o2)C[C@H]1C(=O)O
1.4% | CCn1c(CN(C)C)nnc1C1CCN(Cc2cnc(N(C)C)s2)CC1
-1.9% | COCCC1(C(=O)O)CCCN(C(=O)CCc2c(C)n[nH]c2C)C1 (stereo not drawn)

From PubChem
